# VDR inh: inhibitors of human vitamin D receptor; P11473; VDR-SRC2-3 peptide fluorescence polarization, 2 h; Potency, µM, inactives show max response, negative = inhibition, hits mostly inhibitors; 0.93% of 400,000 active; active means well fitted inhibition curve with a large enough effect; inconclusive means small, poorly fitted or top-dose-only effect, or another doubt; inactive means no such curve, though single readings can be large or run the other way; further: series mostly up to about 120 µM
# Target sequence (P11473 whole entry, looked up): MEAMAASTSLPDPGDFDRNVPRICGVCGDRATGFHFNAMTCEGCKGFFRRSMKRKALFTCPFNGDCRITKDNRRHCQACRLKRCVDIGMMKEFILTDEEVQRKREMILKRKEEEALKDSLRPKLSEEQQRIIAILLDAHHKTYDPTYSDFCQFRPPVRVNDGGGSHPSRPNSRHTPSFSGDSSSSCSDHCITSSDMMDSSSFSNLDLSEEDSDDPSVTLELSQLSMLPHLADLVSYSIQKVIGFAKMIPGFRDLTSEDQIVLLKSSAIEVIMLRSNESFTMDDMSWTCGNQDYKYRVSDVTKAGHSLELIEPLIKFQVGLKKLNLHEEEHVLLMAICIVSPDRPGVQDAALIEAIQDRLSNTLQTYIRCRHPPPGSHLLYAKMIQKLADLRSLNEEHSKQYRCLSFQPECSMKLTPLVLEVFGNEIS
#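 Measured by FP: displacement of SRC2-3 coactivator peptide from VDR by library compounds, following a two-hour ambient incubation.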
# The depositor's hits bear a star; ? = inconclusive; & = joins results of further samples. On the % scale 0 is the no-effect control and ±100 the full control effect; potency means the concentration at half of the fitted maximal effect.
SMILES,VDR inh
CC(C)OCCCN(CC(O)c1ccccc1)CC(O)c1ccccc1 (stereo not drawn),14%
Cc1c(CC(=O)N[C@@H](C)C(=O)O)c(=O)oc2cc3c(cc12)CCC(C)(C)O3,-10%
Cn1c(N)c(C(=O)COC(=O)CNS(=O)(=O)c2cccc(Cl)c2)c(=O)n(C)c1=O,1%
Cc1cc(C(=O)N/N=C/c2ccc(-c3cccc(Cl)c3Cl)o2)n[nH]1,-3%
COc1ccc(-n2c(Cc3cc(=O)[nH]c(=O)[nH]3)nnc2SCC(=O)Nc2ccccc2)cc1,1%
CCCn1nc(Oc2nc(NC(C)C)nc(N(C)C)n2)ccc1=O,-3%
COc1ccc(CN2CCCCCC2)cc1,-6%
COc1ccccc1C(=O)NCCC(=O)Nc1ccc(S(=O)(=O)N2CC(C)CC(C)C2)cc1 (stereo not drawn),-4%
O=C(O)c1ccc(-c2nnc(-c3cccc(Br)c3)o2)cc1,-15%
O=c1oc2ccccc2cc1-c1csc(NN=C2CCCC2)n1,-6%
Cc1cc(C)c(S(=O)(=O)N2CCN(C(=O)c3c(C)noc3C)CC2)c(C)c1,2%
COCCCNC(=S)NNC(=O)c1cc(C2CC2)nc2ccccc12,4%
CCc1nc(SCC(=O)O)c(C#N)c2c1CCCC2,-16%
CCCNC(=O)C1CCN(S(=O)(=O)c2cccc3nonc23)CC1,11%
Cc1cc(C)c2cc(CN(CCN3CCCC3)C(=O)Nc3ccc(F)cc3)c(=O)[nH]c2c1,4%
O=C(NN1C(=O)c2ccccc2NC1c1ccccc1OCc1ccccc1)c1ccncc1 (stereo not drawn),-7%
O=C1NC(=Nc2ccccc2Cl)SC1(CO)CO,8%
Nc1nc(Sc2ccc(C(F)(F)F)cc2[N+](=O)[O-])n[nH]1,14%
O=C(NCCc1c[nH]c2ccccc12)C(=O)NCC(c1ccco1)N1CCN(c2ccc(F)cc2)CC1 (stereo not drawn),4%
COc1ccc2c(c1)CCc1c(C(=O)NCc3ccco3)noc1-2,12%
CCOc1cc(C)c(S(=O)(=O)NC2CCCCC2)cc1C,1%
COCCN1Cc2cc3cc(C)ccc3nc2SC1=Nc1cccc(OC)c1,-26%
COc1cccc(C(=O)NCC2(c3ccc(OC)c(OC)c3)CCCC2)c1,6%
COc1ccccc1OCCCCNC(C)(C)C,-5%
COc1cccc(/C=C2\SC(=S)N(NC(=O)c3ccncc3)C2=O)c1,0%
CC/C(=C/c1sc2ccccc2[n+]1CC)SC,-19%
CCN1CCN(C(=O)CCS(=O)(=O)c2cc3c(cc2Cl)NC(=O)CO3)CC1,-11%
O=C(Nc1ccc(F)cc1)C1CCN(c2ncnc3c2nc2n3CCCCC2)CC1,-1%
Cc1cccc(C(=O)OCC(=O)NCCCc2ccccc2)c1,-14%
CCOC(=O)n1c(=O)n(Cc2ccccc2)c2ccccc21,-7%

# 2 entries from above, set out differently.
VDR inh	Molecule
12%	COc1ccc2c(c1)CCc1c(C(=O)NCc3ccco3)noc1-2
6%	COc1cccc(C(=O)NCC2(c3ccc(OC)c(OC)c3)CCCC2)c1

# Next part.
SMILES,VDR inh
Cc1ccccc1OCC(O)Cn1c(=N)n(CCN2CCCCC2)c2ccccc21 (stereo not drawn),-9%
Cc1c(C(=O)Nc2cccc(F)c2)oc2c1-c1nn(Cc3c(F)cccc3Cl)cc1CC2,-5%
COC(=O)CCC(=O)COc1ccccc1C#N,12%
O=C(CCc1nc2ccccc2[nH]1)N1CCc2ccccc2C1,-24%
COc1cc2c(cc1NS(=O)(=O)N1CCCC1)oc1ccccc12,10%
CCOc1ccc(-c2cc(N)n(S(=O)(=O)c3ccc(OC)cc3)n2)cc1,2%
CCOCCCNC(=O)C(c1ccc(OC)cc1)N(Cc1cccs1)C(=O)c1ccc(NC(C)=O)cc1 (stereo not drawn),8%
COc1ccc(N2CCC(CNC(=S)Nc3c(C)cc(C)cc3C)C2)cc1 (stereo not drawn),-8%
CCCCCCOC(=O)c1ccc(N)cc1,-1%
Cc1ccc(S(=O)(=O)N2CCCC(c3nc4c(nnn4Cc4ccc(OC(F)(F)F)cc4)c(=O)[nH]3)C2)cc1 (stereo not drawn),4%
CC(C)(C)c1ccc(OCC(O)CS(=O)(=O)c2ccccn2)cc1 (stereo not drawn),-2%
Cc1ccc(S(=O)(=O)NCCCCCC(=O)Nc2cccc(C)c2)cc1,-10%
CCOC(=O)c1ccc(NC(=S)N2CCCC(C(=O)OCC)C2)cc1 (stereo not drawn),24%
Cc1cccc(CSc2ccc3nnc(-c4cccs4)n3n2)c1,-7%
Cc1cc(C(=O)CSc2nc3ccccc3[nH]2)c(C)n1C,7%
CSc1ccccc1C(=O)Nc1cccc([N+](=O)[O-])c1,14%
CC(C)NC(=O)CN(Cc1ccccc1)S(=O)(=O)c1ccccc1,7%
Cc1ccc(NC(=O)C2=C(C(=O)O)CCCC2)cc1Br,-23%
Nn1c(-c2ccccc2)nc2ccccc2c1=O,16%
O=C(C(NS(=O)(=O)c1cccs1)c1ccccc1)N1CCN(c2ccccc2F)CC1 (stereo not drawn),18%
Nc1ncc(Br)cc1S(=O)(=O)NC1CCCCC1,-4%
NC(=O)COc1ccc(C(=O)/C=C2/C(=O)Nc3ccccc32)cc1,?
COc1ccc(NC(=O)Nc2cc(F)ccc2C)cc1,-15%
COc1ccc(S(=O)(=O)Nc2ccc3c(c2)CCC3)cc1,45µM*
CC(C)(C)[C@H]1C=C(C(=O)Nc2ccccc2)O[C@@H](OCCCCO)C1,-14%
COc1ccccc1NC(=O)Cn1c(=O)n(Cc2ccc3c(c2)OCO3)c(=O)c2oc3ccccc3c21,5%
O=C1C=C(NCc2ccco2)C2(CCCCC2)O1,1%
Cc1noc(C)c1-c1nc(NC2CCNCC2)c2ccccc2n1,-16%
COC(=O)c1ccc(COc2ccc(Cl)cc2)o1,-7%
CCOc1ccc(CN(C)CC(=O)Nc2ccccc2C(=O)NC2CC2)cc1,-3%

# 21 entries from above, tab-delimited:
Structure	VDR inh
Cc1ccc(S(=O)(=O)N2CCCC(c3nc4c(nnn4Cc4ccc(OC(F)(F)F)cc4)c(=O)[nH]3)C2)cc1 (stereo not drawn)	4%
CC(C)(C)c1ccc(OCC(O)CS(=O)(=O)c2ccccn2)cc1 (stereo not drawn)	-2%
Cc1ccc(S(=O)(=O)NCCCCCC(=O)Nc2cccc(C)c2)cc1	-10%
CCOC(=O)c1ccc(NC(=S)N2CCCC(C(=O)OCC)C2)cc1 (stereo not drawn)	24%
Cc1cccc(CSc2ccc3nnc(-c4cccs4)n3n2)c1	-7%
Cc1cc(C(=O)CSc2nc3ccccc3[nH]2)c(C)n1C	7%
CSc1ccccc1C(=O)Nc1cccc([N+](=O)[O-])c1	14%
CC(C)NC(=O)CN(Cc1ccccc1)S(=O)(=O)c1ccccc1	7%
Cc1ccc(NC(=O)C2=C(C(=O)O)CCCC2)cc1Br	-23%
Nn1c(-c2ccccc2)nc2ccccc2c1=O	16%
O=C(C(NS(=O)(=O)c1cccs1)c1ccccc1)N1CCN(c2ccccc2F)CC1 (stereo not drawn)	18%
Nc1ncc(Br)cc1S(=O)(=O)NC1CCCCC1	-4%
NC(=O)COc1ccc(C(=O)/C=C2/C(=O)Nc3ccccc32)cc1	?
COc1ccc(NC(=O)Nc2cc(F)ccc2C)cc1	-15%
COc1ccc(S(=O)(=O)Nc2ccc3c(c2)CCC3)cc1	45µM*
CC(C)(C)[C@H]1C=C(C(=O)Nc2ccccc2)O[C@@H](OCCCCO)C1	-14%
COc1ccccc1NC(=O)Cn1c(=O)n(Cc2ccc3c(c2)OCO3)c(=O)c2oc3ccccc3c21	5%
O=C1C=C(NCc2ccco2)C2(CCCCC2)O1	1%
Cc1noc(C)c1-c1nc(NC2CCNCC2)c2ccccc2n1	-16%
COC(=O)c1ccc(COc2ccc(Cl)cc2)o1	-7%
CCOc1ccc(CN(C)CC(=O)Nc2ccccc2C(=O)NC2CC2)cc1	-3%

# New compounds follow
SMILES,VDR inh
COC(=O)c1sccc1NC(=O)Nc1cccc(Cl)c1Cl,9%
Cc1nc2ccccc2cc1OCc1ccccc1,-13%
O=C(c1cccs1)N1CCN=C1SCc1ccc(F)cc1,-2%
CCC(Cc1ccccc1)NC(=O)C1CCC(CNc2c(N3CCCC3)c(=O)c2=O)CC1 (stereo not drawn),-11%
COc1cc2c(c(OC)c1OC)C(c1ccccc1C)CC(=O)O2 (stereo not drawn),?
COc1ccc(OC)c(S(=O)(=O)Nc2c(C)nn(C)c2C)c1,0%
NC(=O)CSc1nnc(-c2cnccn2)n1Cc1ccco1,9%
Cc1c(S(=O)(=O)N2CCN(c3cccc(C(F)(F)F)c3)CC2)c(=O)n(C)c(=O)n1C,4%
CC(NC(=O)c1ccco1)C(=O)NC(C)c1cc(F)c(Cl)cc1Cl (stereo not drawn),13%
COc1ccc(OC)c(NC(=O)N[C@H](Cc2ccccc2)C(=O)NN)c1,-7%
CC(C)(C)OC(=O)N1CCC(C(=O)Nc2cccc(C(=O)NCCCCc3ccccc3)c2)CC1,-20%
CC(C)N(Cc1nc(-c2ccccc2)no1)C(=O)C(C)(C)C,2%
CC1(C)OC(=O)C2(Cc3ccccc3N3CCCC32)C(=O)O1 (stereo not drawn),-16%
CCCCn1c(N)c(N(CCOC)C(=O)COC(=O)COc2c(C)cccc2C)c(=O)[nH]c1=O,2%
C/C(=C1/SC(N2CCOCC2)=NC1=O)c1ccc(Br)cc1,-4%
CCc1ccccc1N(C)C(=O)c1cc2c(=O)oc3ccccc3c2s1,-15%
CCCOc1ccc(C(=O)Nc2ccc3nn(-c4ccc(OC)c(Cl)c4)nc3c2)cc1,-14%
O=C(NN1C(=O)CSC1=S)C(=O)NN1C(=O)CSC1=S,9%
Cc1ccc2nc(SCC(=O)N3c4ccccc4CC3C)c(C)cc2c1 (stereo not drawn),12%
Cc1ccc(C)c(NC(=O)CN2C(=O)C3(SCC(=O)N3c3ccc(C)c(C)c3)c3ccccc32)c1 (stereo not drawn),7%
CCN(C(=O)COC(=O)c1cc(NS(=O)(=O)c2ccc(Cl)c([N+](=O)[O-])c2)ccc1O)C1CCCCC1,9%
O=C(c1cccnc1)n1nc(NCc2ccccc2)nc1NCc1ccccc1,-9%
COc1ccc(C(=O)COC(=O)CNC(=O)c2ccc(Cl)cc2Cl)c(OC)c1,-15%
CCCN1C(=O)C(NC(C)=O)c2ccccc21 (stereo not drawn),-2%
COc1cc(CNc2ccc(O)cc2)cc(Br)c1OCc1ccccc1F,35µM*
Cc1ccc(C2N(c3ccccc3)C(=O)N3CCCN23)cc1 (stereo not drawn),3%
NS(=O)(=O)c1ccc(CCNC(=O)C2CCC(CNS(=O)(=O)c3ccc(Br)s3)CC2)cc1 (stereo not drawn),-3%
COc1cccc(NC(=O)c2ccccc2-c2ccccc2)c1,-16%
CC(C)OP(=O)(c1ccc(N(C)C)cc1)C(O)c1cccnc1 (stereo not drawn),-3%
CCCOc1ccc2c3c(c(=O)oc2c1)CCCC3,-6%
Cc1ccc(-c2c(C#N)c(N)nc3c2CCCC3)s1,1%
O=C(Cn1cnc2ccccc21)Nc1cccc(S(=O)(=O)N2CCCC2)c1,6%
Cc1nn(C(C)C(=O)NCc2ccc(Cl)cc2)c(=O)c2cc3occc3n12 (stereo not drawn),16%
CC(N=C1NS(=O)(=O)c2ccccc21)C(=O)NCc1ccc2c(c1)OCO2 (stereo not drawn),2%
C=CCOc1c(Cl)cc(/C=N/O)cc1OC,0%
CC1=C(C(=O)Nc2ccccc2F)C(c2ccsc2)C2=C(CC(C)(C)CC2=O)N1 (stereo not drawn),10%
O=C(NCc1ccc(Cl)cc1)c1cc(-c2cccs2)on1,-2%
CCCN(CC(=O)Nc1ccc(F)c(F)c1F)C(=O)CN1C(=O)NC2(CCCCC2)C1=O,-7%
Cc1cc(C)nc(N2CCCC(C(=O)Nc3cc(F)ccc3C)C2)n1 (stereo not drawn),-3%
CCC(C)c1ccc(-c2cc(C(=O)OCC(=O)Nc3cc(C)on3)c3ccccc3n2)cc1 (stereo not drawn),13%
CCC(=O)N1CCCc2cc(S(=O)(=O)NCc3cccs3)ccc21,-5%
Cc1ccc(-c2nc3ccccc3c(=O)n2CCCN2CCOCC2)cc1,-4%
CC1=C(CC(=O)O)c2cc(F)ccc2/C1=C\c1ccc(S(C)(=O)=O)cc1,-3%
COc1cc(C(=O)NCC(c2ccco2)N2CCCC2)ccc1OCc1ccc(Cl)cc1Cl (stereo not drawn),-12%
Cc1ccc(NC(=O)CN(C)C(=O)CNC(=O)c2ccc3c(c2)OCO3)cc1,-7%
COc1ccc(Cc2nnc(NC(=O)Cc3cccs3)s2)cc1,15%
CCOc1ccccc1N1CCN(C(=O)c2csc(C)c2CC)CC1,-4%
O=C(O)c1ccc(S(=O)(=O)NC2CCCCCC2)cc1,-2%
CCN(C(=O)CSc1nnc(-c2ccco2)n1C)c1c(N)n(Cc2ccccc2)c(=O)[nH]c1=O,-3%
Cc1cc(NC(=O)CSc2nc3cc(Cl)ccc3c(=O)n2Cc2ccco2)no1,6%
Cc1ccc(-n2nc(C)c(=O)c(-c3ccccc3)c2NC(=O)C(C)C)cc1,13%
COc1ccc(C(=O)COC(=O)C2CCC(=O)N2)cc1 (stereo not drawn),7%
O=C(NCCC1=CCCCC1)C(=O)c1c[nH]c2ccccc12,-7%
O=C(CCCCl)N1CCc2[nH]c3ccccc3c2C1,0%
O=C(CSc1n[nH]c(-c2ccncc2)n1)Nc1ccc(Br)cc1,3%
COc1cccc(CN(C)c2nc(-c3cccs3)nc3ccccc23)c1,29%
CCOc1ccccc1N1CC(C(=O)N(Cc2nnc(-c3ccccc3Cl)o2)C2CC2)CC1=O (stereo not drawn),2%
C[C@H](NC(=O)C1CC(=O)N(c2ccc3c(c2)OCCO3)C1)C(=O)N1CCC(C(=O)O)CC1 (stereo partly drawn),21%
Cc1ncc(CC(=O)n2cc(C(=O)c3cc(F)ccc3O)cn2)s1,-5%
Fc1cccc(CN2CCN(c3ncccn3)CC2)c1,10%
# (cont.)
SMILES,VDR inh
COc1sc(SC)cc1/C=N/NC(=O)c1ccncc1,-16%
N#Cc1c(Cl)nsc1NN,-4%
NC(=O)c1ccccc1O,-13%&-8%
CC(Sc1ccc(Br)cc1)C(N)=O (stereo not drawn),-18%

# Some of the compounds tested; rates above refer to the full screens.
